# Screening results: PubChem, Broad Institute
# HIV Env fusion = HIV envelope-mediated fusion inhibition; inhibition, % at 12.3 µM; actives 1.1% (n = 360,000); HeLa-JRFL Env/CEM21 cell fusion, luciferase;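 active = mean replicate inhibition score of at least 50 and every replicate individually at or above 50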;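 also: 0% = plate neutral controls and 100% = maraviroc near 300 nM; one replicate is shown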
# * = called active by the depositor; [ ] = remark or other dose.
SMILES,HIV Env fusion
C[C@@H]1CN([C@H](C)CO)C(=O)c2cc(NC(=O)CCC(F)(F)F)ccc2O[C@H]1CN(C)Cc1ccc(Cl)c(Cl)c1,9[16.7 µM]
COc1ccc(NC(=O)Nc2ccc3c(c2)[C@@H]2C[C@@H](CC(=O)NCC(F)(F)F)O[C@@H](CO)[C@@H]2O3)cc1,-22[16.7 µM]
COc1ccccc1S(=O)(=O)N[C@H]1CC[C@@H](CCn2cc(C3CCCCC3)nn2)O[C@H]1CO,-12[16.7 µM]
COc1cc([N+](=O)[O-])c(OC)cc1Nc1ccccc1C(=O)O,1
Cc1ccccc1-c1ccc2c(c1)[C@@H]1C[C@H]3[C@@H](CN1CC2)[C@H](C)ON3C,10
CC(C)NC(=O)Nc1ccc2c(c1)C(=O)N([C@H](C)CO)C[C@H](C)[C@H](CN(C)C(=O)CCC(F)(F)F)OCCCC[C@H](C)O2,-16[16.7 µM]
CN(c1cccnc1)c1ccc(NC(=O)Cc2c[nH]c3ccccc23)cc1-c1ccc(F)c(F)c1,-27
CCCC(=O)Nc1ccc2c(c1)OC[C@@H](C)N(C(=O)CN(C)C)C[C@@H](C)[C@@H](OC)CN(C)C2=O,7[16.7 µM]
C[C@H]1CN([C@@H](C)CO)C(=O)CCCn2cc(nn2)CO[C@@H]1CN(C)Cc1ccc(Oc2ccccc2)cc1,3[16.7 µM]
COc1ccccc1S(=O)(=O)N(C)C[C@H]1OCc2ccccc2-c2ccccc2C(=O)N([C@@H](C)CO)C[C@H]1C,-58[16.7 µM]
O=C(C[C@@H]1CC[C@H]2[C@@H](COC[C@@H](O)CN2S(=O)(=O)c2ccccc2F)O1)NCc1ccccc1F,-13[16.7 µM]
CO[C@@H]1CN(C)C(=O)c2cc(NC(C)=O)ccc2OC[C@H](C)NC[C@H]1C,-3[16.7 µM]
C[C@H]1CN([C@@H](C)CO)C(=O)c2ccccc2-c2ccccc2CO[C@H]1CN(C)S(=O)(=O)c1ccsc1,39[16.7 µM]
COc1ccc(CN(C)C[C@H]2OCCCC[C@@H](C)Oc3ccc(NC(=O)C4CCCCC4)cc3C(=O)N([C@@H](C)CO)C[C@@H]2C)cc1,-45[16.7 µM]
CO[C@H]1CC[C@H]2CCOc3ccc(C#N)cc3C(=O)N(C)C[C@@H](OC)[C@H](C)C(=O)N(C)C[C@@H]1O2,-14[16.7 µM]

# A different layout for some results above:
compound	HIV Env fusion
CO[C@@H]1CN(C)C(=O)c2cc(NC(C)=O)ccc2OC[C@H](C)NC[C@H]1C	-3[16.7 µM]
C[C@H]1CN([C@@H](C)CO)C(=O)c2ccccc2-c2ccccc2CO[C@H]1CN(C)S(=O)(=O)c1ccsc1	39[16.7 µM]

# (cont.)
SMILES,HIV Env fusion
Cc1noc(C)c1NC(=O)N(C)C[C@H]1Oc2ccc(NS(=O)(=O)c3c(C)noc3C)cc2C(=O)N([C@@H](C)CO)C[C@@H]1C,0[16.7 µM]
O=C(C[C@@H]1CC[C@@H](NC(=O)CCN2CCCCC2)[C@@H](CO)O1)Nc1ccccc1,-5[16.7 µM]
C[C@@H]1CCCCO[C@@H](CN(C)Cc2ccncc2)[C@H](C)CN([C@@H](C)CO)C(=O)c2cc(NC(=O)Nc3ccccc3)ccc2O1,-11[16.7 µM]
C=CCCC1CN(Cc2ccc(OC)cc2)S(=O)(=O)c2c(Oc3ccc(C)cc3)cccc2O1 (stereo unspecified),26
CC(C)=CCC/C(C)=C/CN1C(=O)N(c2ccc(F)cc2)[C@H]2C[C@@H](c3ccccc3)[C@@H](C)[C@@H](C(=O)N3CCOCC3)C[C@H]21,76*
O=C(N[C@H](Cc1ccccc1)C(=O)NCC1CCCCC1)[C@H]1O[C@@H](n2ccc(=O)[nH]c2=O)[C@H](O)[C@@H]1O,-5
C[C@H](CO)N1C[C@H](C)[C@@H](CN(C)Cc2cccnc2)OCc2ccccc2-c2ccccc2C1=O,30[16.7 µM]
COc1ccc(CN(C)C[C@H]2Oc3c(NS(C)(=O)=O)cccc3C(=O)N([C@H](C)CO)C[C@@H]2C)cc1,-4[16.7 µM]
C/C=C/c1ccc([C@@H]2[C@H](CO)N(C(=O)C3CCCC3)C23CN(C(=O)NC(C)C)C3)cc1,4[16.7 µM]
CO[C@H]1CN(C)C(=O)c2ccc(NC(=O)c3ccno3)cc2OC[C@@H](C)NC[C@H]1C,4[16.7 µM]
C[C@H]1CN([C@@H](C)CO)C(=O)c2cc(C3=CCCC3)cnc2O[C@@H]1CN(C)C(=O)C1CC1,-15[16.7 µM]
C[C@H](O)[C@@H]1C(=O)N2CCc3c([nH]c4c(-c5ccccc5)cccc34)[C@@H]2C[C@@H]1N(C)C(=O)c1cc(Cl)cc(Cl)c1,16
COCC(=O)Nc1ccc2c(c1)[C@H]1C[C@@H](CC(=O)N[C@H](C)c3ccccc3)O[C@H](CO)[C@H]1O2,-38[16.7 µM]
Cc1ccc(S(=O)(=O)N(C)C[C@H]2Oc3ccc(NS(=O)(=O)c4ccc(Cl)cc4)cc3C(=O)N([C@@H](C)CO)C[C@H]2C)cc1,-58[16.7 µM]
CC(C)NC(=O)Nc1ccc2c(c1)C(=O)N([C@H](C)CO)C[C@H](C)[C@H](CN(C)C(=O)c1ccncc1)OCCCC[C@@H](C)O2,3[16.7 µM]
CCCN(C)C[C@@H]1Oc2cc(C#CCC3CCCC3)ccc2S(=O)(=O)N([C@H](C)CO)C[C@H]1C,39[16.7 µM]
CCCNC(=O)Nc1ccc2c(c1)C(=O)N(C)C[C@@H](OC)[C@@H](C)CN(C(=O)CC)[C@H](C)CO2,-4[16.7 µM]
O=C1CC2c3cc(Br)ccc3CCN2C(=O)CN1Cc1ccccc1 (stereo unspecified),-9
C#CCN1C(=O)[C@]2(OC[C@@H]3Cc4ccccc4[C@@H]3C=C2C)c2ccccc21,-10
Cc1noc(C)c1S(=O)(=O)Nc1ccc2c(c1)CC(=O)N([C@@H](C)CO)C[C@H](C)[C@@H](CN(C)Cc1ccc(-c3ccccc3)cc1)O2,-48[16.7 µM]
Cc1noc(C)c1NC(=O)N(C)C[C@@H]1OCc2ccccc2-c2ccccc2C(=O)N([C@H](C)CO)C[C@H]1C,-16[16.7 µM]
O=C(Nc1ccc(Cl)c(Cl)c1)N[C@H]1CC[C@H](CCNC(=O)c2ccc(F)cc2)O[C@H]1CO,2[16.7 µM]
CC[C@H](C)[C@H]1CNC(=O)C(=O)N1CC1CCN(CCc2ccc(OC)c(OC)c2)CC1,-8
Cc1ccccc1-c1ccc2c(c1)O[C@@H](CN(C)C(=O)Nc1ccc(F)cc1)[C@H](C)CN([C@@H](C)CO)S2(=O)=O,-10[16.7 µM]
CC(C)c1cn(CC[C@H]2CC[C@@H](NC(=O)C3CC3)[C@H](CO)O2)nn1,-54[16.7 µM]
Cc1ccc(S(=O)(=O)N(C)C[C@H]2Oc3ccc(NS(=O)(=O)c4cn(C)cn4)cc3CC(=O)N([C@H](C)CO)C[C@@H]2C)cc1,-26[16.7 µM]
CO[C@@H]1CN(C)C(=O)c2cc(NC(=O)C3CC3)ccc2OC[C@@H](C)N(C(=O)NC(C)C)C[C@@H]1C,9[16.7 µM]
Cc1ccc(Oc2cccc3c2S(=O)(=O)N([C@H](C)c2ccccc2)C[C@@H](COCc2ccccc2)O3)cc1,-7
CCCNC(=O)C[C@H]1C[C@H]2c3cc(NC(=O)COC)ccc3O[C@H]2[C@H](CO)O1,20[16.7 µM]
CO[C@@H]1CN(C)C(=O)c2cc(NS(=O)(=O)c3cn(C)cn3)ccc2OC[C@@H](C)N(Cc2ccc(C(F)(F)F)cc2)C[C@H]1C,88*[16.7 µM]
COc1ccc(S(=O)(=O)N(C)C[C@@H]2OCCCC[C@H](C)Oc3ccc(NS(=O)(=O)c4cn(C)cn4)cc3C(=O)N([C@@H](C)CO)C[C@H]2C)cc1,20[16.7 µM]
CO[C@@H](CN(C)Cc1cc(F)ccc1F)[C@@H](C)CN([C@@H](C)CO)S(=O)(=O)c1ccc(F)cc1,40[16.7 µM]
COCC(=O)Nc1ccc2c(c1)C(=O)N(C)[C@@H]1CC[C@H](CC(=O)N3CCc4ccccc4C3)O[C@H]1CO2,3[16.7 µM]
C[C@@H]1CCCCO[C@@H](CN(C)Cc2ccncc2)[C@H](C)CN([C@H](C)CO)C(=O)c2cc(NC(=O)c3ccncc3)ccc2O1,-5[16.7 µM]
C[C@H](CO)N1C[C@H](C)[C@@H](CN(C)C(=O)[C@H]2CCCN2C)OCc2ccccc2-c2ccccc2C1=O,-85[16.7 µM]
O=C(Nc1ccc(C(F)(F)F)cc1)Nc1ccc2c(c1)[C@H]1C[C@H](CC(=O)N3CCc4ccccc4C3)O[C@H](CO)[C@H]1O2,2[16.7 µM]
C[C@@H]1CN([C@H](C)CO)C(=O)c2ccccc2-c2ccccc2CO[C@@H]1CN(C)S(=O)(=O)c1cn(C)cn1,2[16.7 µM]
COC(=O)C[C@H]1C[C@H]2c3cc(NS(C)(=O)=O)ccc3O[C@H]2[C@H](CO)O1,11[16.7 µM]
CO[C@H]1CN(C)C(=O)c2ccc(NC(=O)C3CCOCC3)cc2OC[C@@H](C)NC[C@H]1C,1[16.7 µM]
COc1ccc(-c2ccc3n(c2=O)C[C@@H]2[C@@H](CO)[C@H](C(=O)NC4CCC4)N(S(C)(=O)=O)[C@H]32)cc1,25[16.7 µM]
CCCNC(=O)Nc1ccc2c(c1)OC[C@@H](C)N(C(=O)C1CCOCC1)C[C@@H](C)[C@@H](OC)CN(C)C2=O,10[16.7 µM]
C=CCNc1cccc2c1S(=O)(=O)N[C@H](CC(C)C)CO2,7
CCCNC(=O)N[C@@H]1C=C[C@@H](CC(=O)NCCc2ccccc2)O[C@@H]1CO,6[16.7 µM]
O=C(C[C@H]1CC[C@@H]2[C@H](COC[C@H](O)CN2S(=O)(=O)c2cccc(F)c2)O1)NCc1ccncn1,-6[16.7 µM]
COc1ccc2c3c([nH]c2c1)[C@H](CO)N(C(=O)Nc1ccc(F)cc1)CC31CCN(S(=O)(=O)c2cccc(F)c2)CC1,11[16.7 µM]
CO[C@@H]1CN(C)C(=O)c2cc(NC(=O)c3cc(C)on3)ccc2OC[C@@H](C)N(CC2CC2)C[C@H]1C,51[16.7 µM]
COc1ccccc1S(=O)(=O)N[C@H]1CC[C@H](CCn2cc(C3CCCCC3)nn2)O[C@@H]1CO,10[16.7 µM]
CCNC(=O)C[C@@H]1CC[C@H]2[C@H](COc3ccc(NC(C)=O)cc3C(=O)N2C)O1,-15[16.7 µM]
C[C@@H]1CN([C@H](C)CO)C(=O)c2cccc(NS(C)(=O)=O)c2O[C@H]1CN(C)S(=O)(=O)c1ccc(F)cc1,10[16.7 µM]
O=C(O)C[C@@H]1C[C@H]2c3cc(NC(=O)Nc4ccc(C(F)(F)F)cc4)ccc3O[C@H]2[C@H](CO)O1,2[16.7 µM]
COCC(=O)Nc1ccc2c(c1)C(=O)N(C)C[C@@H](OC)[C@@H](C)CN(Cc1ccccn1)[C@H](C)CO2,1[16.7 µM]
C[C@@H]1CCCCO[C@H](CN(C)C)[C@H](C)CN([C@@H](C)CO)C(=O)c2cc(NC(=O)C3CCCCC3)ccc2O1,2[16.7 µM]
Cc1ccccc1C(=O)N[C@H](C(=O)N1CCC[C@H]1C(=O)NCCc1ccccc1Cl)C1CCCCC1,-38
COc1ccc2c3c(n(C)c2c1)[C@H](CO)N(Cc1ccc(F)cc1)CC31CCN(CC2CCOCC2)CC1,-5[16.7 µM]
COC(=O)C[C@H]1CC[C@@H]2[C@H](COc3ccc(NC(=O)c4ccccc4F)cc3C(=O)N2C)O1,-5[16.7 µM]
O=C(C[C@@H]1C[C@@H]2c3cc(NS(=O)(=O)c4ccc(F)cc4)ccc3O[C@@H]2[C@@H](CO)O1)NCc1cccnc1,1[16.7 µM]
O=C(Nc1ccccc1F)N[C@H]1CC[C@@H](CCNC(=O)C2CCCCC2)O[C@@H]1CO,-6[16.7 µM]
C[C@@H]1CN([C@@H](C)CO)C(=O)c2cc(NC(=O)c3ccncc3)ccc2O[C@@H]1CN(C)Cc1ccc(Cl)c(Cl)c1,11[16.7 µM]
CSc1nc2c(=O)[nH]cnc2s1,6
Cc1cc2c(c(=O)o1)[C@@]1(C(=O)N(C)c3ccccc31)C1=C(CC(C)(C)OC1=O)O2,-5

# Molecules listed so far that contain a COOH group, in the order listed:
SMILES,HIV Env fusion
COc1cc([N+](=O)[O-])c(OC)cc1Nc1ccccc1C(=O)O,1
O=C(O)C[C@@H]1C[C@H]2c3cc(NC(=O)Nc4ccc(C(F)(F)F)cc4)ccc3O[C@H]2[C@H](CO)O1,2[16.7 µM]

# A run of entries of the results above:
SMILES,HIV Env fusion
C[C@@H]1CN([C@@H](C)CO)C(=O)c2cc(NC(=O)c3ccncc3)ccc2O[C@@H]1CN(C)Cc1ccc(Cl)c(Cl)c1,11[16.7 µM]
CSc1nc2c(=O)[nH]cnc2s1,6
Cc1cc2c(c(=O)o1)[C@@]1(C(=O)N(C)c3ccccc31)C1=C(CC(C)(C)OC1=O)O2,-5

# Additional structures
SMILES,HIV Env fusion
Cc1ccc(S(=O)(=O)Nc2ccc3c(c2)C(=O)N([C@@H](C)CO)C[C@@H](C)[C@H](CN(C)C(=O)Nc2ccc4c(c2)OCO4)O3)cc1,-1[16.7 µM]
C[C@@H]1CN([C@@H](C)CO)C(=O)c2cc(NS(=O)(=O)c3ccc(F)cc3)ccc2O[C@@H]1CN(C)S(=O)(=O)c1cn(C)cn1,-6[16.7 µM]
C[C@@H]1CN([C@@H](C)CO)C(=O)c2cc(NC(=O)C3CC3)ccc2O[C@H]1CN(C)C(=O)Nc1ccc(F)cc1,-12[16.7 µM]
COc1ccc(OC(=O)N(C)C[C@@H]2OCc3ccccc3-c3ccccc3C(=O)N([C@@H](C)CO)C[C@H]2C)cc1,-9[16.7 µM]
C[C@@H]1CN([C@H](C)CO)C(=O)c2ccccc2-c2ccccc2CO[C@@H]1CN(C)C(=O)CCN(C)C,-2[16.7 µM]

# A portion of the library (hit frequency here may not be typical).
